# AmpC nodet inh: AmpC beta-lactamase inhibition, detergent-free assay; P00811; AmpC nitrocefin hydrolysis, absorbance 480 nm, no detergent; potencies from a single point are estimates; Potency, µM (highest dose often 28.7 µM), for the others: top-dose activity change, negative = inhibition; 71,000 tested, 1.8% active; AID 585; active = falling curve, for most hits resting on a single point; inconclusive = weak or doubtful change; inactive = flat or rising curve; also: % of control where 0% means no effect; about half of the hits show no inhibition at the top dose; a quarter of the inactives give rising signals
# Target sequence (P00811 whole entry, looked up): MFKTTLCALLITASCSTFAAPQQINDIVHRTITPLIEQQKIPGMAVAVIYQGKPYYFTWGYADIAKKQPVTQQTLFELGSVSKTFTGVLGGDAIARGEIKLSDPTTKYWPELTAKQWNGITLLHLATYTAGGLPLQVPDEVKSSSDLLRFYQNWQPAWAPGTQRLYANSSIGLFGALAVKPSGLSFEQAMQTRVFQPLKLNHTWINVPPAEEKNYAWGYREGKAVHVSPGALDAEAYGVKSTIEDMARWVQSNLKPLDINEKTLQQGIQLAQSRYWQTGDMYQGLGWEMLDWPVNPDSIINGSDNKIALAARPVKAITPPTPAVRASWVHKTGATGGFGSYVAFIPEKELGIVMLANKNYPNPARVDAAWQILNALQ
#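 AmpC, 20 mM phosphate pH 7.0; 15 min cpd preinc, RT; start with nitrocefin (800 uM stock); A480 kinetic read, 20 s intervals, 4 min. No-enzyme wells = negative control.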
# * hit, by the source's call; ? = inconclusive; [ ] = dose if it differs, or a comment. Potency is read from the fitted curve at half-maximal effect.
SMILES | AmpC nodet inh
COC(=O)c1ccccc1NC(=O)c1sc(N)nc1C | -3%
O=C(NCCN1CCCCCC1)c1ccc(N2CCCC2=O)cc1 | -9%
CCc1ccc(NC(=O)c2noc3c2CCCCC3)cc1 | -10%
COc1cccc(Cn2c(=O)c(C)nc3cnc(Oc4cccc(Cl)c4)nc32)c1 | 99%
COc1cc(C(=O)OC2C[C@H]3CC[C@@H](C2)N3C)ccc1O (stereo partly specified) | -11%[12.8 µM]
CCCCN(CCCC)CCn1cnc2c([nH]c3ccc(OC)cc32)c1=O | 4µM*[single pt active]
CC1=C(\C=C/C(C)=C/C=C\C(C)=C\CO)C(C)(C)CCC1 | 98%
C[C@@]1(CCOCc2ccccc2)NC(=O)NC1=O | -3%[5.75 µM]
CC(=O)OC(C(=O)Nc1ccccc1)C(C)S(=O)(=O)c1ccccc1 (stereo unspecified) | 7%
CN(C(=O)c1ccccc1)c1nc2ccccc2s1 | -3%
Cc1cc(C(=O)CSc2nnnn2C)c(C)n1CCc1ccc(Cl)cc1 | -5%
CS(=O)(=O)Nc1cccc(-c2nc(NCc3ccccc3)c3ccccc3n2)c1 | 6%
Nc1nonc1-c1nc2ccccc2n1CC(=O)NC1CCCC1 | -6%
COc1ccc(C(C#N)N2CCCCC2)cc1OC (stereo unspecified) | 2%
O=S(=O)(O)c1ccc(N=Nc2ccccc2)cc1 | -12%[5.75 µM]
CN(c1nnc(N)s1)C1CCCCC1 | 4µM*[single pt active]
CCOc1ccc(S(=O)(=O)Nc2ccccc2C(=O)Nc2ccccc2N2CCOCC2)cc1 | 29%
O=C(Nc1nccs1)c1cccc(S(=O)(=O)N2CCCCC2)c1 | -7%
CCSCCOC(=O)C1=C(C)N(C)C(=O)NC1c1cc(OC)ccc1OC (stereo unspecified) | 68%
NC(=O)N1c2ccccc2C=Cc2ccccc21 | -5%
COc1ccc2c(c1)C(=O)N(CCc1ccc(S(=O)(=O)NC(=O)NC3CCCCC3)cc1)C(=O)C2(C)C | -8%[12.8 µM]
O=C(Cc1ccccc1)Nc1ccc2oc(-c3cccnc3)nc2c1 | 18%
CC1CCCCC1NC(=O)CN(C)S(=O)(=O)c1cccc2nsnc12 (stereo unspecified) | 18%
Cc1ccc(-c2cn3c(n2)CCCC3)cc1 | -8%
CCOP(=O)(c1ccccc1Cl)C1(O)CCCCC1 (stereo unspecified) | 0%
O=C1c2ccccc2C(=O)N1c1nc2nccc(-c3ccccc3)n2n1 | -10%
Brc1ccc2nc3c(n2c1)CCCC3 | 0%
CCc1nc(SCC(=O)N2CCOCC2)c2c(=O)n(C)c(=O)n(C)c2n1 | 4%
O=C(NCCOC(=O)c1ccncc1)c1ccccc1 | -5%
O=C(NCCc1cn2ccccc2n1)c1ccccc1F | -9%
COCCn1c(=O)c(-c2ccc(F)cc2)nc2cnc(N3CCOCC3)nc21 | 10%
N#CC1=C(N)N(c2ccc(Br)cc2)C2=C(C(=O)CCC2)C1c1cccnc1 (stereo unspecified) | 19%

# Gathered by group, the compounds so far containing two or more sulfur atoms.
SMILES | AmpC nodet inh
O=C(Nc1nccs1)c1cccc(S(=O)(=O)N2CCCCC2)c1 | -7%
CC1CCCCC1NC(=O)CN(C)S(=O)(=O)c1cccc2nsnc12 (stereo unspecified) | 18%

# Going on with the list.
SMILES | AmpC nodet inh
C=CC1C(N2CCOCC2)C(C)(C)S1(=O)=O (stereo unspecified) | 1%
COCCOC(=O)C1=C(C)Nc2nc(C)nn2C1c1ccccc1 (stereo unspecified) | 2%
O=C1c2ccccc2C(O)N1c1ccc(Cl)cc1 (stereo unspecified) | -8%
CC(C(=O)O)C1SC(=O)NC1=O (stereo unspecified) | 1%
CN[C@H]1[C@H](O)[C@@H](O[C@@H]2[C@H](O)[C@@H](O[C@H]3OC(CN)=CC[C@H]3N)[C@@H](N)C[C@H]2N)OC[C@@]1(C)O | -17%[12.8 µM]
CC1CCc2nc(N)c(C#N)c(-c3ccncc3)c2C1 (stereo unspecified) | -10%
CSc1nccc(Nc2ccccc2)c1C#N | -12%
Cn1c(=O)c2cn3ncccc3c2n(C)c1=O | -1%
Cc1cnc(C(=O)OCC(=O)N2CCN(C(=O)c3ccco3)CC2)cn1 | -9%
Cc1cc(N2CCc3ccccc32)n2ncnc2n1 | 0%
Cc1sc2nc(CSc3nc4ccccc4c(=O)n3CCCN3CCOCC3)[nH]c(=O)c2c1C | 116%
O=C(Cn1nnc(-c2ccccc2)n1)OCc1ccccc1 | 3%
COc1ccc(NC(=O)c2cc3ccccc3o2)cc1 | 6%
Cc1ccc(C(=O)CSc2nc(N)cc(=O)[nH]2)cc1 | -4%
CC(C)(Cc1c[nH]c2ccc(Cl)cc12)NCCOc1ccccc1OCC1CC1 | 20µM*[single pt active]
CC(C)CCNc1nc(N2CCCC2)c2c(c1C#N)CCN(C)C2 | 80%
CC(C)OCC1CO1 (stereo unspecified) | -11%
O=C(c1cc2ccccc2oc1=O)N(Cc1ccco1)Cc1cccs1 | -4%
CCOC(=O)Cn1c(=O)oc2cc(S(=O)(=O)Nc3cccc(C)c3)ccc21 | -5%
Cc1cnc(CNc2ncnc3ccc(-c4ccccc4C)cc23)cn1 | 133%
C=C(C)Cn1c(Sc2nnc(C)s2)nc2c1c(=O)[nH]c(=O)n2C | 2%
c1ccc(-c2nc3cc(Cc4ccc5oc(-c6ccccn6)nc5c4)ccc3o2)nc1 | 2%
CS(=O)(=O)N(CC(=O)N1CCCC1)c1ccc(Cl)c(Cl)c1 | 20%
O=C(NC1CCCCCC1)C1CCN(S(=O)(=O)N2CCC3(CC2)OCCO3)CC1 | 41%
CC1(C)CC(=O)C2=C(C1)OC(N)=C(C#N)C2c1ccsc1 (stereo unspecified) | -5%
CCOC(=O)c1c(C)[nH]c(C(=O)NCc2ccccc2OC)c1C | 28%
CC(=O)c1ccc(N2CCCC2)c(F)c1 | 0%
COc1ccccc1NC(=O)N1CCCC1C(=O)Nc1ccc2c(c1)OCO2 (stereo unspecified) | -2%
CCCC1(C(=O)OC)NC(c2cc(OC)c(OC)c(OC)c2)C2C(=O)N(CC)C(=O)C21 (stereo unspecified) | 27%
C/C(NCc1cccnc1)=C(\C#N)C(=O)NCc1ccccc1 | 11%
O=C1NCCCc2c1no[n+]2[O-] | ?
O=C1C2C3C=CC(C3)C2C(=O)N1CN(Cc1ccccc1)CN1C(=O)C2C3C=CC(C3)C2C1=O (stereo unspecified) | 66%
COc1ccc(-c2cc(C(=O)OCC(=O)N3CCCC3)c3ccccc3n2)cc1 | 116%
CS(=O)(=O)Nc1cccc(-c2ccc3ncnc(N4CCNCC4)c3c2)c1 | 5%
CC(C)OCCCNC(=O)NC12CC3CC(CC(C3)C1)C2 | 12%
Cc1ccccc1NC(=O)CC1SC(=NC2CCCCC2)NC1=O (stereo unspecified) | 1%
CCN(CC)CCN1C(=O)c2oc3ccccc3c(=O)c2C1c1cccc(Br)c1 (stereo unspecified) | 46%
Cc1nn(C(C)(C)C)c(OC(=O)c2cccs2)c1S(=O)(=O)c1ccccc1 | 5%
COc1ccc(OC)c(-c2cc(C(=O)NCCN3CCOCC3)no2)c1 | 43%
COc1nc(N)nc(NC23CC4CC(CC(C4)C2)C3)n1 | 11%

# 6 structures already listed, arranged by SMILES length, high to low.
SMILES | AmpC nodet inh
Cc1nn(C(C)(C)C)c(OC(=O)c2cccs2)c1S(=O)(=O)c1ccccc1 | 5%
CCN(CC)CCN1C(=O)c2oc3ccccc3c(=O)c2C1c1cccc(Br)c1 (stereo unspecified) | 46%
CS(=O)(=O)Nc1cccc(-c2ccc3ncnc(N4CCNCC4)c3c2)c1 | 5%
COc1ccc(OC)c(-c2cc(C(=O)NCCN3CCOCC3)no2)c1 | 43%
Cc1ccccc1NC(=O)CC1SC(=NC2CCCCC2)NC1=O (stereo unspecified) | 1%
CC(C)OCCCNC(=O)NC12CC3CC(CC(C3)C1)C2 | 12%

# Remaining list, next part:
SMILES | AmpC nodet inh
NS(=O)(=O)c1cc2c(cc1Cl)N[C@@H](C(Cl)Cl)NS2(=O)=O | -5%[12.8 µM]
Cc1cc(C)cc(-n2nnc(C(=O)NCc3ccccc3Cl)c2N)c1 | 0%
O=C(c1c[nH]c2ccc(S(=O)(=O)N3CCC4(CC3)OCCO4)cc2c1=O)N1CCOCC1 | 3%
CC(C)CCC(CCN1CCOCC1)c1ccc2c(c1)OCO2 (stereo unspecified) | 64%
Cc1ccc(-n2ccnc2SCC(=O)N(CC(C)C)C2CCS(=O)(=O)C2)c(C)c1 (stereo unspecified) | 118%
Cn1c(=O)c(C(=S)NC(=O)C2CC2)c(N)n(Cc2ccccc2)c1=O | -16%
Cc1ccc(CNC(=O)CCCNS(=O)(=O)c2cccc3nonc23)cc1 | 16%
O=S(=O)(Nc1cccnc1)c1ccc(Cl)c(C(F)(F)F)c1 | 4%
O=S(=O)(c1ccccc1)N1CCC2(CCCN(Cc3ccncc3)C2)CC1 | 72%
Cc1ncoc1C(=O)Nc1cccc(Cl)c1C | 0%
CCCc1cc(=O)[nH]c(SCC(=O)c2c(N)n(C)c(=O)n(C)c2=O)n1 | -6%
COc1cc2c(cc1OC)C(c1cccs1)CC(=O)N2 (stereo unspecified) | -8%
CC(=O)Nc1nonc1-n1nnc(C(=O)NCc2ccccc2)c1C | 3%
CN(C)CCCNCCCNC(=O)c1ccncc1 | -15%
OC(COCc1cccs1)CN1CCCCCC1 (stereo unspecified) | 6%
COc1ccc(C(=O)N2CCN(c3ccc(C)cc3C)CC2)cc1OC | 142%
NC(N)=Nc1ccc(Cl)cc1 | 1%
Fc1ccc(CSc2nnc(-c3cccnc3)n2Cc2ccco2)cc1 | 0%
O=C(c1cccc(F)c1)N1CCC[C@@]2(CCN(Cc3ccncc3)C2)C1 | 2%
CCC(C)c1cc(S(=O)(=O)N2CCOCC2)ccc1OC (stereo unspecified) | 42%
CC(C)CCNC(=O)C(c1cccs1)N(CC1CCCO1)C(=O)Cn1nnc2ccccc21 (stereo unspecified) | 47%
COc1ccc(C2=CC(c3ccc(OC)c(OC)c3)n3nnnc3N2)c(OC)c1 (stereo unspecified) | 73%
O=C(OCc1cc(Cl)ccc1OC(F)F)c1cc(S(=O)(=O)O)ccc1O | -5%
O=C(NCC1CCCO1)NC12CC3CC(CC(C3)C1)C2 (stereo unspecified) | 4%
C=CCn1c(=N)c(C(=O)OCC)cc2c(=O)n3cc(C)ccc3nc21 | -2%
O=C(Nc1ccc(N2CCOCC2)cc1)c1cccc(S(=O)(=O)N2CCCC2)c1 | -6%
C=CCN1C(=O)c2ccccc2Sc2ccc(C(=O)N3CCN(C)CC3)cc21 | 49%
O=C(c1csnn1)N1CCC2(CCN(Cc3ccccc3)CC2)CC1 | 1%
CCn1c(SCC(=O)Nc2nccs2)nnc1-c1ccc(S(=O)(=O)N2CCCCC2)cc1 | 39%
CC(C)(C)c1ccc(-c2noc(CCC(N)=O)n2)cc1 | 25%
Cc1cc(NC(=O)C2CCCC2)nc2c1c(=O)oc1ccccc12 | 1%
Cc1csc(NC(=O)C(Cc2ccccc2)n2cccc2)n1 (stereo unspecified) | -4%
COc1cccc(C(=O)Nc2cccc(C(=O)N3CCOCC3)c2)c1 | 3%
Cc1ccc(S(=O)(=O)N2CCCC2C(=O)Nc2ccc(O)cc2)cc1 (stereo unspecified) | -7%
CCOC(=O)CSc1ccc2nnc(-c3cccnc3)n2n1 | -7%
Cc1cc(N2CCN(C3CCCC3)CC2)n2nc(C)c(-c3ccccc3)c2n1 | 106%
COc1ccc2c(c1)C(NC(C)=O)C(=O)N2C (stereo unspecified) | 6%
CC(C)c1ccc(NC(=O)COC(=O)C2=COCCO2)cc1 | 16%
COc1ccc2oc(-c3ccccc3)c(OC)c(=O)c2c1 | 88%
CC(C)[C@H](N=Cc1ccccc1O)C(=O)O | 7%[5.75 µM]
CC(=O)N1CCC2(CCCN(Cc3nccs3)C2)CC1 | 47%
CCOc1ccc(NC(=O)c2cccc3c2C(=O)N(Cc2cccnc2)C3)cc1 | 122%
CCCCc1nnc(NC(=O)C2CCCO2)s1 (stereo unspecified) | 12%
Cc1ccc(-n2c(C)c3c(C)nnc(C)c3c2C)cc1 | 12%
CCCCCC(=O)Nc1ccc(Cl)cn1 | -17%
O=C(c1c(F)cccc1F)N(Cc1ccccn1)C1CCCC1 | 24%
O=C(c1cc2cc3ccc(Cl)cc3nc2o1)N1CCC2(CC1)OCCO2 | 67%
CN(C1CCCCC1)S(=O)(=O)c1ccc(NC(=O)CCC(=O)O)cc1 | 2%
CCOC(=O)C1CCCN(C(=O)CN2C(=O)C(CC)Oc3ccc(C)cc32)C1 (stereo unspecified) | 72%
CN(Cc1ccco1)c1ncncc1-c1ccccc1Cl | 126%
COc1ccc(NS(=O)(=O)c2ccc(NC(=O)C(C)(C(F)(F)F)C(F)(F)F)cc2)nn1 | -1%
O=C(CN1C(=O)NC2(CCCCCCC2)C1=O)N1CCOCC1 | -7%
CC(=O)OC1COC(n2ccc3ccccc32)C(OC(C)=O)C1OC(C)=O (stereo unspecified) | 60%
COc1cc(CN2CCN(C(=O)CC(C)C)CC2)cc(OC)c1OC | 62%
CCOC(=O)NC1CCS(=O)(=O)C1 (stereo unspecified) | -4%
O=C1c2ccccc2-c2ncnc3c(N4CCOCC4)cc(N4CCOCC4)c1c23 | 10%

# Continued.
SMILES | AmpC nodet inh
Cc1nnc(Oc2ccccc2F)c2ccccc12 | -1%
CCn1c(SCC(=O)Nc2cc(C)on2)nc2c(c1=O)SC(C)C2 (stereo unspecified) | -13%
CN(C)C(=O)N1CCC(C(=O)NCc2cccs2)CC1 | -8%
O=C(NCc1ccco1)c1ccc(CS(=O)(=O)Cc2ccc(Cl)cc2)o1 | -7%

# Bioassay records: PubChem, National Center for Advancing Translational Sciences (NCATS)

# These rows are one share of the data; rates above refer to the full screens.
